Vif A3G = HIV-1 Vif–A3G interaction blockers – biochemical, TR-FRET, GST-Vif 1-94, biotin-A3G peptide, dose response retest, primary screen (AID 1117319). 260,000 compounds, 0.57% hits. inhibition, %, or IC50 in µM where a hit was titrated. TR-FRET GST-Vif / biotin-A3G peptide binding; higher % means a stronger effect; test concentration not given here; strong numbers were not always called active;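 active = above the screen mean plus three standard deviations and confirmed in dose response; inconclusive = results disagree or hit not tested in dose response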;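 note: Vif residues 1-94 fused to GST binding biotinylated APOBEC3G peptide 110-148; 0% = full assay without inhibitor and 100% = GST in place of GST-Vif; retest series ran down from 100 µM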
ALR H2O2 inh = inhibitors of human sulfhydryl oxidase ALR; P55789; purified ALR, DTT oxidation, H2O2 HRP-luminol luminescence; inhibition, % (no concentration beside the values); 290,000 compounds, 3.8% hits; AID 485317;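 active = mean and each replicate at 75% or more; inconclusive = only one of the two met; inactive = neither met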;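 note: stock transfer was 7.5 nL into about 7.5 µL; 0% = neutral wells and 100% = wells with inactivated enzyme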
Target sequence (P55789 whole entry, looked up): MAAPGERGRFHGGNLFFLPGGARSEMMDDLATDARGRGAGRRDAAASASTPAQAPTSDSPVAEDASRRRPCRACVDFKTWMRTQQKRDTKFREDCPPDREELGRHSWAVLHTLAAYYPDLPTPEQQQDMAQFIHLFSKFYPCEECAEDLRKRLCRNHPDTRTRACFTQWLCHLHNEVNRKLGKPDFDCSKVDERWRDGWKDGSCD
E coli growth = E. coli growth inhibition; 330,000 compounds, 0.21% hits; OD600 absorbance (test concentration not listed); Escherichia coli growth, OD600, 23 h; stronger effect = lower value;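 active = OD600 absorbance below the run mean of sample wells minus 3.6 SD, in any replicate, cut at about 0.56 in these data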;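 note: stock transfer was 300 nL into about 60 µL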
AF4-AF9 inh = MLL-AF4/AF9 protein interaction inhibition. AID 651704. inhibition, % at 10 µM. AlphaScreen, biotin-AF4 peptide binding to FLAG-AF9. P42568. 350,000 compounds, 0.47% hits;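 active = every replicate reaching a set inhibition limit, whatever the replicate mean, cut at about 25% in these data; inconclusive = mean inhibition reaches that limit but some replicates miss it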;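 note: 0% = plate neutral control median and 100% = total signal loss; the record names both 10 and 1 µM as test concentration; the first replicate is given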
Ecoli rRNA inh = inhibits bacterial ribosomal RNA function over humanized ribosomes. E. coli WT GFP vs humanized-ribosome RFP mutants, fluorescence, 24 h; stronger effect = lower value; DMSO median 0, no signal -100. GFP signal change (wild-type ribosome), % (test concentration not listed). 350,000 compounds, 1.6% hits;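 active = significant combined selectivity score with lowered wild-type GFP, culture density cut under 30%, mutant RFP and density less affected; inactive = any of these conditions unmet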; note: one replicate is shown; some compounds called inactive have numbers as strong as hits
FGF22 binding = binders of recombinant human FGF22 by thermal shift; Q9HCT0; SYPRO orange fluorescence; percent of sucrose octasulfate shift, DMSO zero; calls only at 9.99 µM; 340,000 compounds, 1.5% hits; AID 651658;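 active = melting point raised past a set limit in the mean and every replicate; inconclusive = no clear call; three in four hits are not shown here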
Target sequence (Q9HCT0 whole entry, looked up): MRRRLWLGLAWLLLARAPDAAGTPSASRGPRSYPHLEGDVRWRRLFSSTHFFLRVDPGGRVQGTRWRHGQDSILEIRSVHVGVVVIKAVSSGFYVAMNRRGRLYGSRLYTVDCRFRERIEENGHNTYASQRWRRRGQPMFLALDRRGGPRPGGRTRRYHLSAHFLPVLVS
HNF4A DNA FP = change in binding of human HNF4 alpha to DNA; P41235; 360,000 compounds, 0.3% hits; activity change, % at 10 µM; HNF4a-FITC DNA binding, fluorescence polarization, 1 h; in the data active = activity change above about 30%, passing the limit was not always enough;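 note: controls were the assay level and a saturating level of protein; the project sought stronger binding though the title names inhibitors; some compounds called inactive have numbers as strong as hits; positive values seem to mean higher polarization but the record does not say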
Target sequence (P41235 whole entry, looked up): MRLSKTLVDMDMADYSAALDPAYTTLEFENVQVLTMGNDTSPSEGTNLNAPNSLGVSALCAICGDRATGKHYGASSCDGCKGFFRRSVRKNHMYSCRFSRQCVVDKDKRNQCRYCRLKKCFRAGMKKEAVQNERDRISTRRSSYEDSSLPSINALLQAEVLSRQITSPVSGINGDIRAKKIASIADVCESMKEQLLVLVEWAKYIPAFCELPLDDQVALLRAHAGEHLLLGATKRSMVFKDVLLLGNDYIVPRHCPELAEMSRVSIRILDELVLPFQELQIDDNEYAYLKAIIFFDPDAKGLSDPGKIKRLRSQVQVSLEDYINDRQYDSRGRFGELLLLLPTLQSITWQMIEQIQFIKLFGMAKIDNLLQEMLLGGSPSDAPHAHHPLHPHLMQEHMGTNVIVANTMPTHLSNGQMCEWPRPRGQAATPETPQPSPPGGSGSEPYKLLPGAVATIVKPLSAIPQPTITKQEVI
Ecoli rRNA inh OD600 = also measured in Ecoli rRNA inh; calls as there; OD600 change, %; measured here: OD600 growth;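 optical density of the mix in the first replicate; 0 = DMSO median and -100 = no signal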
Ecoli rRNA inh RFP = further read-out of Ecoli rRNA inh, marked with its call; RFP signal change, %; measured here: RFP humanized mutant strains;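 first replicate; 0 = DMSO median and -100 = no signal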
* hit, by the source's call; i = inactive; ? = inconclusive; / = not tested or not shown; & = joins results of further samples. An excerpt, so the mix of outcomes need not match the whole.

Under each structure: Ecoli rRNA inh RFP	Vif A3G	ALR H2O2 inh	HNF4A DNA FP	E coli growth	Ecoli rRNA inh OD600	FGF22 binding	Ecoli rRNA inh	AF4-AF9 inh
COCCCNC(=O)C[C@H]1C[C@H](C(=O)N2CCCCC2)[C@@]2(C)c3[nH]c4cc(-c5ccco5)ccc4c3CCN2C1=O
    6.5	/	/	2.3	0.71	3	i	9	12
CN(C(=O)c1cccc(NC(=O)Cc2ccc(NC(=O)C3CCN(C(=O)C4CC4)CC3)cc2)c1)C1CCCC1
    3.8	-3%	/	-2.8	0.69	0	i	3	-0.8
COc1ccc(C2C(C(=O)C(C)(C)C)=C(O)C(=O)N2Cc2ccccc2)cc1 (centres undefined)
    /	/	3	0.0	0.66	/	/	/	/
O=C(Nc1ccc2c(c1)OCCO2)C(c1ccnc2ccccc12)N1CCN(c2ccc(C(F)(F)F)cn2)CC1 (centres undefined)
    9.6	/	/	5.0	/	24	i	17	-2.6
COC(C)(C)c1cc(C(C)(C)C)nc(N)n1
    /	0%	-1	-0.1	0.76	/	/	/	/
CCCOP(=O)(OCCC)C(NC(=O)C(C)(C)C)c1ccccc1 (centres undefined)
    0.7	/	2	-1.9	0.67	6	i	9	-1.4
O=C(Nc1nc(-c2ccco2)c(-c2ccco2)s1)c1ccc(F)cc1F
    1.3	85µM*	/	1.0	0.63	0	i	0	4.7
CCCNC(=O)[C@@H]1[C@@H](CO)[C@@H]2Cn3c(cccc3=O)[C@H]1N2Cc1ccccc1
    -0.8	/	/	/	/	-6	i	-2	-3.7
COc1cc(-c2[nH]ncc2CN(C)Cc2nonc2C)cc(OC)c1OC
    0.1	-5%	-14	5.0	0.68	1	i	-5	-2.6
CC(C)Oc1ccc(-c2cc(C(=O)NCCN3CCOCC3)c3ccccc3n2)cc1
    /	63%	-15	-1.1	0.68	/	/	/	/
CC(=O)NC(Cc1ccc(F)c(F)c1)C(=O)NC1CCN(c2c(Cc3ccccc3)c(C)nc3ncnn23)CC1 (centres undefined)
    -1.3	/	1	6.6	0.65	-15	i	-6	-0.3
COc1ccc(C[C@H]2CCc3cnnn3COC[C@H](CC(C)C)NC2=O)cc1
    2.0	/	/	/	/	13	i	3	16
O=C(COC(=O)c1nc(Cl)ccc1Cl)Nc1cccc(S(=O)(=O)N2CCOCC2)c1
    -1.5	/	/	-2.4	0.65	10	i	3	0.4
CC1C(=O)N(Cc2cn(CCC3OCCO3)nn2)CCS(=O)(=O)N1Cc1ccc(-c2ccc(F)nc2)cc1 (centres undefined)
    2.1	-3%	/	-1.1	/	1	i	4	0.2
CC(Sc1nnc(-c2ccco2)n1N)C(=O)NC1CCCCC1C (centres undefined)
    1.2	-12%	4	0.3	0.65	14	i	3	-3.6
O=C(CSc1nnc(-c2ccc(F)cc2)n1-c1ccccc1)NCCN1C(=O)CSC1=O
    /	-16%	/	0.5	0.68	/	i	/	0.9
CCOC(=O)C1=C(Cn2ccc(C(F)(F)F)n2)NC(=O)NC1c1ccc2c(c1)OCO2 (centres undefined)
    /	3%	-3	-0.4	0.68	/	/	/	/
CCOC(=O)c1oc2c(c1C)/C(=N/O)CCC2
    -5.9	?	0	-1.4	/	1	/	1	/
Nc1cccc(C(=O)Nc2ccccc2Cl)c1
    /	1%	-4	1.2	0.63	/	/	/	/
CC(Sc1nnc2n1CCCCC2)C(=O)Nc1cccc(S(=O)(=O)N2CCOCC2)c1 (centres undefined)
    1.1	2%	/	-3.4	0.62	15	i	9	2.3

Next section:
Under each structure: Ecoli rRNA inh RFP	Vif A3G	ALR H2O2 inh	HNF4A DNA FP	E coli growth	Ecoli rRNA inh OD600	FGF22 binding	Ecoli rRNA inh	AF4-AF9 inh
CC(C)c1cn(CC[C@@H]2CC[C@@H](NS(=O)(=O)c3ccc(F)cc3)[C@@H](CO)O2)nn1
    1.4	/	/	/	/	1	i	3	-1.1
COc1ccc2cc(C(c3nnnn3C3CCCC3)N3CCc4ccccc4C3)c(=O)[nH]c2c1 (centres undefined)
    -1.4	78%&-4%	-19	-3.2	0.63	2	/	2	/
COc1ccccc1/C=C/C(=O)NNC(=O)c1cc(C)oc1C
    -0.6	3%	/	-5.8	0.64	1	i	0	2.0
Cc1ccc(NC(=O)C2CC(c3ccc(F)cc3)=NO2)cc1 (centres undefined)
    /	4%	6	-0.9	0.72	/	/	/	/
COC(=O)c1cccc(Oc2nc3c(c(=O)n(C)c(=O)n3C)n2Cc2ccc(C)cc2)c1
    -5.0	/	/	-0.6	0.75	0	i	-6	7.3
C[C@@H]1CN([C@H](C)CO)C(=O)c2cc(NC(=O)Nc3ccc4c(c3)OCO4)ccc2O[C@@H](C)CCCCO[C@H]1CN(C)S(=O)(=O)c1cn(C)cn1
    -2.8	/	/	/	/	2	i	5	2.0
CN1C(=O)CSc2ccc(NC(=O)NCc3ccccc3)cc21
    2.9	/	-2	0.2	0.69	-3	i	2	-7.7
Cc1nc(C)c(-c2csc(Nc3ccc(F)cc3)n2)s1
    -1.6	/	94*	-1.5	0.67	-70	i	-42	1.4
CC(=O)Oc1ccc(N(C(C)=O)S(=O)(=O)c2ccc(C)cc2)c2ccccc12
    4.0*	/	22	1.8	0.68	-6.4*	i	-25*	1.9
C[C@@H]1CN([C@@H](C)CO)C(=O)c2cc(NC(=O)Nc3ccc4c(c3)OCO4)ccc2O[C@@H](C)CCCCO[C@H]1CN(C)C(=O)Nc1cccc2ccccc12
    -2.0	/	/	/	/	7	i	0	4.7
COc1c(Cl)cc(C(=O)NN)cc1Cl
    -0.9	-7%	89*	0.3	0.68	5	i	2	2.0
Cc1ccc(C)c(N2CCN(c3nnnn3-c3ccccc3)CC2)c1
    /	-5%	-2	1.2	0.69	/	/	/	/
CCSc1nnc(Cc2cc(=O)[nH]c(=O)[nH]2)n1-c1cc(C)ccc1C
    /	-3%	-5	-0.8	0.72	/	/	/	/
Cc1onc(-c2c(F)cccc2Cl)c1C(=O)Nc1cccc(S(=O)(=O)N2CCCCC2)c1
    -1.9	/	/	/	/	-20	i	-7	-5.4
CC(=O)COC(=O)CNC(=O)c1ccc(Br)cc1
    /	2%	-12	0.7	0.72	/	/	/	/
S=C(Nc1ccccc1)Nc1ccccn1
    0.7	/	/	0.0	/	3	i	1	-0.4
O=C1CN(C(=O)CC2C(=O)NCCN2Cc2ccccc2C(F)(F)F)CCN1 (centres undefined)
    -2.0	-5%	-3	0.1	0.68	7	i	4	-2.0
COc1cc(C(=O)N(Cc2ccc(C)o2)C2CCS(=O)(=O)C2)cc(OC)c1OC (centres undefined)
    -0.8	-4%	0	3.7	0.67	2	i	7	-2.5
C[C@@H]1CN([C@@H](C)CO)C(=O)CCCn2nncc2CO[C@H]1CN(C)S(=O)(=O)c1ccc2ccccc2c1
    0.1&-0.5	5%	/	-3.8	/	-3&-4	i	0&0	-0.6&-2.7&-0.3
CCc1nc(C#N)c(N2CCCCC2)o1
    4.6	10%	-2	-0.3	0.72	12	i	4	-2.2

(further entries)
Under each structure: Ecoli rRNA inh RFP	Vif A3G	ALR H2O2 inh	HNF4A DNA FP	E coli growth	Ecoli rRNA inh OD600	FGF22 binding	Ecoli rRNA inh	AF4-AF9 inh
Cc1ccccc1CC1(CO)CCCN(C(=O)Cc2c(F)ccc(F)c2F)C1 (centres undefined)
    2.6	-3%	-3	-1.7	0.7	-31	i	-21	-2.1
CC(=O)N(c1nc(CCl)cs1)c1c(C)cc(C)cc1C
    3.3	/	-2	-6.8	0.67	9	i	6	-4.5
COc1cccc(-c2nc(CS(=O)(=O)CC(=O)NCCCN3C(C)CCCC3C)c(C)o2)c1 (centres undefined)
    0.3	-3%	11	2.0	0.69	6	i	0	-11
O=C(NCc1ccc(Cl)cc1)C1CCCCN1S(=O)(=O)c1ccccc1 (centres undefined)
    -7.5	-6%	3	2.1	0.65	-26	i	-24	0.8
CCC(C)(C)n1nnnc1C(c1ccc(OC)c(OC)c1)N1CCN(c2ccccc2)CC1 (centres undefined)
    /	0%&7%	-2	-0.1	0.77	/	/	/	/
CCC(CC)NC(=O)c1cccc([N+](=O)[O-])c1C
    12	14%	/	-2.8	0.65	1	i	2	3.1
C[C@@H]1CN([C@@H](C)CO)C(=O)Cc2cc(NC(=O)CCCCCC(=O)Nc3ccccc3N)ccc2O[C@H]1CN(C)Cc1ccccc1
    1.2	/	/	/	/	0	i	-2	1.5
Cc1cc2oc(=O)c3c(c2cc1OCc1nn[nH]n1)CCCC3
    /	2%	17	-2.6	0.67	/	/	/	/
CCC(=O)N1c2ccc(S(=O)(=O)NCCc3ccc(C)cc3)cc2CC1C (centres undefined)
    -6.7	/	-6	-0.6	0.66	-23	i	-2	-1.2
O=C(COc1ccccc1)NS(=O)(=O)c1ccccc1
    0.7	/	-2	0.7	0.69	7	i	1	-3.1
O=C(Cc1noc2ccccc12)Nc1ccc2ccccc2c1
    /	-1%	-10	-2.6	0.66	/	/	/	/
CCCC(=O)Nc1nc2n(n1)C(c1ccccc1)CC(=O)N2 (centres undefined)
    /	1%	-4	-2.3	0.68	/	/	/	/
Nc1ccc(N2CCCC2)c(S(=O)(=O)Nc2cccc(C(F)(F)F)c2)c1
    0.2	-3%	18	5.3	0.66	10	i	0	15
CCN(CC(=O)Nc1c(F)cccc1F)C(=O)CCNC(=O)c1ccccc1OC
    1.6	-4%	-2	2.1	0.67	10	/	9	-0.3
COc1cc(C(=O)Nc2ccc(C#N)cc2)c([N+](=O)[O-])cc1OC
    1.0	/	-31	3.2	0.69	0	i	3	0.0
Cc1cccc(NC(=O)c2c(-c3ccccc3)noc2C)n1
    -2.0	-3%	/	-0.8	0.69	-8	i	2	-2.8
C[C@H](CO)N1C[C@H](C)[C@@H](CN(C)CC2CCCCC2)Oc2ccc(NC(=O)C3CC3)cc2C1=O
    -0.6	/	/	/	/	-1	i	2	-2.3
O=C(CN1CCN(c2ccccn2)CC1)N1CC(O)CO1 (centres undefined)
    0.2	5%	1	-5.8	0.68	27	i	21	-2.6
Cc1ccc2occ(/C=N/NC(=O)c3ccccc3Br)c(=O)c2c1
    2.3	/	43	-0.1	/	5	i	4	-0.6
O=C(Nc1ccccc1C(=O)NCCCN1CCOCC1)c1ccccc1
    -1.6	-6%	-2	-3.9	0.73	8	i	-1	-1.5

The list continues.
Under each structure: Ecoli rRNA inh RFP	Vif A3G	ALR H2O2 inh	HNF4A DNA FP	E coli growth	Ecoli rRNA inh OD600	FGF22 binding	Ecoli rRNA inh	AF4-AF9 inh
O=C(CNC1CCCCC1)N1CCc2ccccc2C1
    /	4%	-1	4.8	0.66	/	/	/	/
Cc1oc2cc3c(C(=O)N4CCCCC4)c(C)oc3cc2c1C(=O)N1CCCCC1
    /	-3%	-5	3.8	0.68	/	/	/	/
COc1ccc(-c2ccc3c(c2)[C@@H]2[C@@H](CCN2C(=O)c2cnccn2)[C@H](CO)N3)cc1
    -1.6	/	/	/	/	0	i	-2	3.3
COc1ccc(CN(Cc2ccc(C(=O)O)cc2)C(=S)Nc2cc(C)cc(C)c2)cc1OC
    0.1	-3%	38	-0.5	0.64	2	i	15	0.5
COc1ccc(NS(=O)(=O)c2ccc(NC(=O)c3ccc(N(C)S(C)(=O)=O)cc3)cc2)c(OC)c1
    0.8	?	-1	0.0	/	8	i	20	1.1
CCCCCCc1ccc(OC(=O)c2ccncc2)cc1
    1.1	-3%	-11	-4.3	0.63	6	i	3	1.3
CN(C)N=Nc1ccc2nc[nH]c2c1
    /	5%	92*	0.0	0.67	/	i	/	0.3

Screening results deposited in PubChem BioAssay by several laboratories.
